# Vaccinia inh – blocks a specific stage of Vaccinia orthopoxvirus infection, primary screen, cell-based, single point; Vaccinia-infected cells, mCherry/Venus stage reporter fluorescence; active compounds read low; some inactives read as strong as hits; activity change (mCherry), % (test concentration not listed); actives 0.01% (n = 89,000); AID 1053133, 2014;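 active = mCherry past -33% and 40 or more points under the early reporter, replicates agreeing; inconclusive = past -33% without that gap or agreement; tested in A549 cells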;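 also: scaled between vehicle wells and reference inhibitor wells; 23 nL library stock went into each well; one replicate is shown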
# Vaccinia inh Venus – further read-out of Vaccinia inh, marked with its call; activity change (Venus), %; measured here: Venus reporter, other viral stage;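 negative = less Venus signal; first of two replicates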
# An asterisk follows results filed as active; ? = inconclusive; . = no result given; & = joins results of further samples. An excerpt, so the mix of outcomes need not match the whole.
SMILES,Vaccinia inh,Vaccinia inh Venus
C[C@H](CO)N1C[C@H](C)[C@H](CN(C)S(=O)(=O)c2ccc(F)cc2)OCCCC[C@H](C)Oc2ccc(NC(=O)Nc3cccc4ccccc34)cc2C1=O,13.9,20.0
COc1ccccc1S(=O)(=O)N1CC[C@@H]2[C@H](CO)Nc3ccc(-c4ccc(F)cc4)cc3[C@@H]21,?,.
COc1ccc(NC(=O)N(C)C[C@@H]2OCCCC[C@@H](C)Oc3ccc(NC(=O)Nc4ccccc4)cc3C(=O)N([C@H](C)CO)C[C@@H]2C)cc1,4.3,4.0
COCC(=O)Nc1ccc2c(c1)OC[C@@H](C)N(C(=O)CN1CCOCC1)C[C@@H](C)[C@H](OC)CN(C)C2=O,15.0,13.6
CN(C)CC(=O)N[C@H]1CC[C@@H](CCNC(=O)C2CCC2)O[C@@H]1CO,3.4,5.6
COc1ccc(S(=O)(=O)N(C)C[C@H]2Oc3cc(Br)ccc3S(=O)(=O)N([C@H](C)CO)C[C@H]2C)cc1,-24.6,-27.7
CCCN1[C@@H]2c3ccc(-c4ccc(OC)cc4)c(=O)n3C[C@@H]2[C@@H](CO)[C@@H]1C(=O)OC,-11.6,6.3
CO[C@@H]1CN(C)C(=O)c2ccc(NC(=O)Cc3ccccc3)cc2OC[C@@H](C)N(C(C)=O)C[C@@H]1C,13.6,5.1
CCc1cnc(N2[C@@H](C#N)[C@H](c3ccc(C#CC(C)C)cc3)[C@@H]2CO)s1,-21.2,-13.8
CCCNC(=O)Nc1ccc2c(c1)C(=O)N(C)C[C@H](OC)[C@@H](C)CN(C(=O)c1ccccc1F)[C@@H](C)CO2,6.4,11.8
COc1ccccc1S(=O)(=O)N[C@@H]1CC[C@@H](CCNC(=O)C2CCCC2)O[C@@H]1CO,7.8,6.6
COc1ccccc1-c1cn(CC[C@H]2CC[C@H](NC(=O)C3CC3)[C@H](CO)O2)nn1,3.6,6.2
O=S(=O)(N[C@@H]1CC[C@H](CCn2cc(-c3ccc(F)cc3)nn2)O[C@@H]1CO)c1ccccc1F,-7.8,-7.0
CS(=O)(=O)Nc1ccc2c(c1)[C@H]1C[C@H](CC(=O)NCc3ccccc3F)O[C@H](CO)[C@H]1O2,6.4,7.5
CCC(=O)N[C@@H]1C=C[C@@H](CC(=O)NCC2CCCCC2)O[C@H]1CO,-5.7,-5.4
COc1ccc2c3c([nH]c2c1)[C@H](CO)N(C(C)=O)CC31CCN(C(=O)Nc2ccccc2F)CC1,-32.1,-30.8
CN1CCN(C(=O)C[C@H]2C=C[C@H](NC(=O)Cc3ccccn3)[C@@H](CO)O2)CC1,3.3,4.3
C[C@H](CO)N1C[C@H](C)[C@H](CN(C)S(C)(=O)=O)Oc2ccc(NS(=O)(=O)c3ccc(F)cc3)cc2CC1=O,-1.5,14.0
C[C@H](CO)N1C[C@H](C)[C@@H](CN(C)C(=O)C2CCOCC2)Oc2ncc(C#CCc3ccccc3)cc2C1=O,12.6,5.8
CN1C(=O)c2cc(NC(=O)c3ccccc3)ccc2OC[C@@H]2O[C@H](CC(=O)O)CC[C@H]21,20.0,25.4
CCCN(C)C[C@H]1OCCCC[C@@H](C)Oc2ccc(NC(=O)Nc3ccc(C(F)(F)F)cc3)cc2C(=O)N([C@H](C)CO)C[C@H]1C,?,.
C[C@@H]1CN([C@@H](C)CO)C(=O)c2cc(/C=C/c3ccccc3)cnc2O[C@H]1CN(C)S(=O)(=O)c1ccccc1,-26.7,-19.6
CCS(=O)(=O)Nc1ccc2c(c1)C(=O)N(C)[C@H]1CC[C@H](CC(=O)Nc3ccccc3C)O[C@@H]1CO2,7.7,9.4
Cc1noc(C)c1NC(=O)Nc1ccc2c(c1)C(=O)N([C@H](C)CO)C[C@H](C)[C@@H](CN(C)C(=O)CCCN(C)C)OCCCC[C@H](C)O2,31.4,15.5
CNC[C@@H]1Oc2ccc(NS(=O)(=O)c3cn(C)cn3)cc2CC(=O)N([C@@H](C)CO)C[C@@H]1C,14.5,22.2
C[C@H]1CN([C@@H](C)CO)C(=O)c2cccc(NC(=O)C3CCCCC3)c2O[C@@H]1CN(C)S(=O)(=O)c1ccccc1,-16.2,-8.5
COc1ccc(CN(C)C[C@@H]2OCCCC[C@H](C)Oc3ccc(NC(=O)Nc4ccc5c(c4)OCO5)cc3C(=O)N([C@H](C)CO)C[C@H]2C)cc1,?,.
C[C@H](CO)N1C[C@H](C)[C@H](CN(C)S(=O)(=O)c2cccs2)OCCCC[C@H](C)Oc2ccc(NC(=O)Nc3ccc4c(c3)OCO4)cc2C1=O,-8.0,-4.2
CN1CCN(C(=O)c2cc3c(c(-c4cccc(-c5ccccc5F)c4)n2)[C@H](CCO)N([S@@](=O)C(C)(C)C)C3)CC1,-9.1,7.8
COCC(=O)NC[C@H]1[C@H](c2ccc(C3=CCCC3)cc2)[C@@H](CO)N1C(C)=O,1.3,11.1
COc1ccccc1CNC(=O)C[C@@H]1C=C[C@H](NC(C)=O)[C@@H](CO)O1,-2.4,6.0
CCc1cnc(N2[C@@H](C#N)[C@@H](c3ccc(-c4cccc(F)c4)cc3)[C@@H]2CO)s1,-13.0,-0.5
CCCNC(=O)C[C@H]1CC[C@@H]2[C@H](COC[C@H](O)CN2C(=O)Nc2ccc3c(c2)OCO3)O1,7.5,6.2
COc1ccc2c3c([nH]c2c1)[C@H](CO)N(C(=O)C1CC1)CC31CCN(Cc2nccs2)CC1,-15.9,-14.3
C[C@H]1CN([C@@H](C)CO)C(=O)Cc2cc(NC(=O)C3CC3)ccc2O[C@@H]1CN(C)Cc1ccccc1,17.9,21.3
Cc1noc(C)c1NC(=O)NCC[C@H]1CC[C@H](NC(=O)Cc2cccnc2)[C@H](CO)O1,7.2,2.8
COc1ccccc1-c1ccc2c(c1)[C@H]1[C@H](CCN1C(=O)C1CCOCC1)[C@@H](CO)N2,-9.5,-11.1
C[C@@H]1CN([C@H](C)CO)C(=O)c2cccc(NC(=O)Nc3ccccc3)c2O[C@@H]1CN(C)C,4.6,2.8
COCC(=O)N1[C@@H](CO)[C@@H]2c3ccccc3N(C(=O)C3CC3)C[C@@H]21,8.9,2.5
O=C(C[C@@H]1C=C[C@@H](NC(=O)NC2CCCCC2)[C@@H](CO)O1)NCc1ccc(Cl)cc1,3.7,6.0
O=C(Nc1ccc(C(F)(F)F)cc1)N[C@H]1CC[C@H](CC(=O)N2CCCCC2)O[C@@H]1CO,7.4,4.6
COc1ccc(CN2[C@H](CO)[C@H]3c4ccccc4NC[C@H]32)cc1,?,.
C[C@H]1CN([C@@H](C)CO)C(=O)Cc2cc(NS(C)(=O)=O)ccc2O[C@H]1CN(C)C(=O)Nc1ccc(F)cc1,15.6,7.7
C[C@@H]1CN([C@@H](C)CO)C(=O)c2cc(C3=CCCC3)cnc2O[C@@H]1CN(C)C(=O)C1CCCCC1,8.1,6.5
CC(C)NC(=O)Nc1ccc2c(c1)C(=O)N([C@@H](C)CO)C[C@@H](C)[C@H](CN(C)S(=O)(=O)c1ccccc1)O2,9.0,5.4
Cc1ccc(S(=O)(=O)Nc2cccc3c2O[C@@H](CN(C)S(=O)(=O)c2ccc(Cl)cc2)[C@H](C)CN([C@@H](C)CO)C3=O)cc1,5.6,1.4
C[C@@H]1CN([C@@H](C)CO)C(=O)c2cccc(N(C)C)c2O[C@H]1CN(C)S(=O)(=O)c1ccc(F)cc1,-7.1,-8.3
O=C(NCc1ccc2c(c1)OCO2)[C@H]1[C@H](CO)[C@H]2Cn3c(cccc3=O)[C@@H]1N2Cc1cncnc1,13.0,15.6
Cc1ccc(S(=O)(=O)N[C@@H]2C=C[C@@H](CC(=O)N3CCc4ccccc4C3)O[C@@H]2CO)cc1,-9.1,2.0
COc1ccccc1NC(=O)N1C[C@H](O)COC[C@@H]2O[C@@H](CC(=O)NCCc3ccccc3)CC[C@H]21,-1.9,-1.4

# (continued)
SMILES,Vaccinia inh,Vaccinia inh Venus
COc1ccc(S(=O)(=O)Nc2ccc3c(c2)C(=O)N([C@H](C)CO)C[C@H](C)[C@H](CN(C)C(=O)Cc2ccccc2)OCCCC[C@@H](C)O3)cc1,?,.
CCCC(=O)Nc1ccc2c(c1)C(=O)N(C)[C@H]1CC[C@@H](CC(=O)NCC3CC3)O[C@@H]1CO2,12.9,5.2
O=C(C[C@H]1CC[C@@H]2[C@H](COC[C@H](O)CN2C(=O)Nc2cc(Cl)cc(Cl)c2)O1)NCC1CCCCC1,-28.5,-22.8
C[C@H](CO)N1C[C@H](C)[C@@H](CN(C)C(=O)C2CCCCC2)Oc2cc(-c3cncnc3)ccc2S1(=O)=O,9.3,6.6
O=C(CCN1CCCCC1)NCC[C@@H]1CC[C@@H](NC(=O)Cc2cccnc2)[C@H](CO)O1,-6.2,-9.4
O=C(C[C@@H]1CC[C@@H]2[C@H](COC[C@@H](O)CN2C(=O)Nc2ccc(Cl)cc2)O1)NCCc1ccncc1,-27.7,-22.7
C[C@@H]1CN([C@H](C)CO)C(=O)c2cc(-c3ccc(F)cc3)cnc2O[C@H]1CN(C)Cc1ccccn1,2.2,6.6
COCC(=O)N1[C@H](C#N)[C@H](c2ccccc2-c2cccc(OC)c2)[C@@H]1CO,-30.8,-22.4
C[C@@H]1CN([C@H](C)CO)C(=O)c2cccc(NC(=O)CCCCCC(=O)Nc3ccccc3N)c2O[C@@H]1CN(C)S(C)(=O)=O,-6.4,-11.7
O=C(Nc1ccccc1)Nc1ccc2c(c1)[C@@H]1C[C@H](CC(=O)N3CCCCC3)O[C@H](CO)[C@@H]1O2,11.3,6.2
CCCC#Cc1ccc([C@H]2[C@H](CO)N3C(=O)CN(S(=O)(=O)Cc4ccccc4)C[C@@H]23)cc1,-10.3,-16.0
CC(C)C(=O)Nc1ccc2c(c1)C(=O)N(C)[C@@H]1CC[C@@H](CC(=O)Nc3ccccc3)O[C@H]1CO2,14.9,9.7
OC[C@@H]1Nc2ccc(C#Cc3ccc(F)cc3)cc2[C@H]2[C@@H]1CCN2Cc1ccc2c(c1)OCO2,?,.
C[C@H]1CN([C@@H](C)CO)C(=O)c2cc(-c3ccccc3F)cnc2O[C@@H]1CN(C)C(=O)NC1CCCC1,21.2,-0.8
C[C@H](CO)N1C[C@H](C)[C@H](CN(C)S(=O)(=O)c2ccc(F)cc2)Oc2ccc(NC(=O)CCN3CCOCC3)cc2C1=O,4.2,1.2
C[C@H]1CN([C@@H](C)CO)C(=O)Cc2cc(NC(=O)Cn3cnnn3)ccc2O[C@H]1CN(C)S(=O)(=O)c1cn(C)cn1,13.9,8.1
C[C@@H]1CN([C@H](C)CO)C(=O)CCCn2nncc2CO[C@@H]1CN(C)CC1CC1,14.7,11.3
CNC[C@H]1OCCCC[C@H](C)Oc2ccc(NS(=O)(=O)c3ccc(F)cc3)cc2C(=O)N([C@H](C)CO)C[C@@H]1C,-0.2,16.4
C[C@@H]1CCCCO[C@@H](CN(C)CC2CCCCC2)[C@@H](C)CN([C@@H](C)CO)C(=O)c2cc(NC(=O)Cc3ccccc3)ccc2O1,?,.
O=C(CCN1CCCCC1)NCC[C@@H]1CC[C@H](NC(=O)C2CCC2)[C@H](CO)O1,1.4,1.8
CC(C)C#Cc1cnc2c(c1)C(=O)N([C@@H](C)CO)C[C@@H](C)[C@@H](CN(C)C(=O)Nc1ccc(F)cc1)O2,10.8,-6.4
COc1ccc(S(=O)(=O)N(C)C[C@H]2Oc3ccc(NC(=O)CCC(F)(F)F)cc3CC(=O)N([C@H](C)CO)C[C@@H]2C)cc1,2.6,6.4
O=C(Nc1cccc(F)c1)N1CCCCN2[C@H](C1)[C@@H](c1ccc(C#Cc3cccnc3)cc1)[C@@H]2CO,?,.
Cc1ccc(-c2ccc3c(c2)O[C@H](CN(C)C)[C@@H](C)CN([C@H](C)CO)S3(=O)=O)cc1,-6.0,-11.8
C[C@@H]1CN([C@@H](C)CO)C(=O)c2cc(Br)cnc2O[C@@H]1CN(C)Cc1ccccn1,10.7&22.2,-0.9&6.9
O=C(Nc1ccc2c(c1)[C@@H]1C[C@H](CC(=O)N3CCc4ccccc4C3)O[C@@H](CO)[C@@H]1O2)C1CCOCC1,-1.9,3.8
COCC(=O)Nc1ccc2c(c1)OC[C@H](C)NC[C@@H](C)[C@H](OC)CN(C)C2=O,-4.1,-5.7
O=C(Cc1ccccc1)N1CC(=O)N2[C@H](CO)[C@@H](c3ccc(-c4cccc(F)c4)cc3)[C@@H]2C1,?,.
C[C@H]1CN([C@@H](C)CO)C(=O)c2cc(NC(=O)CCCCCC(=O)Nc3ccccc3N)ccc2O[C@@H]1CN(C)C(=O)Nc1ccccc1,0.9,1.5
C[C@@H]1CN([C@@H](C)CO)C(=O)c2c(c3ccccc3n2C)-c2ccccc2CO[C@H]1CN(C)S(=O)(=O)c1cccs1,?,.
COCC(=O)Nc1ccc2c(c1)C(=O)N(C)C[C@@H](OC)[C@H](C)CN(C(=O)c1ccncc1)[C@H](C)CO2,-3.5,-1.9

# Of the compounds above, these contain a Cl atom:
SMILES,Vaccinia inh,Vaccinia inh Venus
O=C(C[C@@H]1C=C[C@@H](NC(=O)NC2CCCCC2)[C@@H](CO)O1)NCc1ccc(Cl)cc1,3.7,6.0
Cc1ccc(S(=O)(=O)Nc2cccc3c2O[C@@H](CN(C)S(=O)(=O)c2ccc(Cl)cc2)[C@H](C)CN([C@@H](C)CO)C3=O)cc1,5.6,1.4
O=C(C[C@H]1CC[C@@H]2[C@H](COC[C@H](O)CN2C(=O)Nc2cc(Cl)cc(Cl)c2)O1)NCC1CCCCC1,-28.5,-22.8
O=C(C[C@@H]1CC[C@@H]2[C@H](COC[C@@H](O)CN2C(=O)Nc2ccc(Cl)cc2)O1)NCCc1ccncc1,-27.7,-22.7
